# TRPV1 potentiator = enhances activation of the human vanilloid receptor TRPV1 | TRPV1-expressing cells, Fluo-8 calcium influx, capsaicin EC20 potentiation; host cell line not named in the record; control for the full effect not named in the record | hit rate 0.02% among 320,000 | AID 540277 | potentiation, % at 8.33 µM; active means potentiation above 80%; inconclusive means 30% to 80%; inactive means below 30%; further: 0% is about no effect
#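 TRPV1-expressing cells were cultured overnight at 35.5C and loaded with Fluo-8 calcium dye for 40 to 90 min at room temperature. After a 10 s baseline, compound was added and calcium influx was read kinetically for 3 min (ex 480/em 520 nm).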
# Sfp inh = Sfp phosphopantetheinyl transferase inhibition; Q9F4F7; Biochemical Sfp PPTase activity, qHTS; Potency, µM, inactives show max response, negative = inhibition, hits mostly inhibitors; hit rate 3.5% among 310,000; AID 1490; active means well fitted inhibition curve with a large enough effect; inconclusive means small, poorly fitted or top-dose-only effect, or another doubt; inactive means no such curve, though single readings can be large or run the other way;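 further: the enzyme is Sfp with the accession as filed and its product quenches rhodamine fluorescence; potency means the concentration at half of the fitted maximal effect; 0% = enzyme reaction without inhibitor and -100% = no enzyme wells; top concentration of the series not given in the record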
#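 After 15 min at room temperature with compound, 15 nM Sfp received 5 uM rhodamine-CoA plus 12.5 uM BHQ-2-ybbR (50 mM Hepes pH 7.6, 10 mM MgCl2). Rate came from the fluorescence difference over 30 min, ex 525/em 598 nm.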
# Menin-MLL FL inh = menin-MLL binding inhibition, fluorescein peptide | 290,000 tested, under 10 active | Fluorescence polarization, fluorescein-MLL peptide displacement from menin | FP activity change, % at 61.4 µM; inconclusive = falling polarisation curve, or a change in total fluorescence; inactive = total fluorescence flat and polarisation flat or rising; no compound was filed as active; the % refers to the polarisation; negative = inhibition;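 further: % of control where 0% means no effect; inhibitors lower the polarisation; unlabelled MLL peptide was the positive control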
# TRPML1 ag = agonists of human TRPML1 channel; Q9GZU1; TRPML1-expressing cells, Ca2+ dye fluorescence, FDSS; host cell line not named in the record; reference of the full effect not given here; activation, % (concentration not given with the values); hit rate 0.12% among 410,000; AID 624414; in the data active = activation above about 50%; inconclusive = about 30% to 50%; inactive = below about 30%; further: 0% is about no effect; the text of the record puts the active cut at 80%
# Target sequence (Q9GZU1 whole entry, looked up): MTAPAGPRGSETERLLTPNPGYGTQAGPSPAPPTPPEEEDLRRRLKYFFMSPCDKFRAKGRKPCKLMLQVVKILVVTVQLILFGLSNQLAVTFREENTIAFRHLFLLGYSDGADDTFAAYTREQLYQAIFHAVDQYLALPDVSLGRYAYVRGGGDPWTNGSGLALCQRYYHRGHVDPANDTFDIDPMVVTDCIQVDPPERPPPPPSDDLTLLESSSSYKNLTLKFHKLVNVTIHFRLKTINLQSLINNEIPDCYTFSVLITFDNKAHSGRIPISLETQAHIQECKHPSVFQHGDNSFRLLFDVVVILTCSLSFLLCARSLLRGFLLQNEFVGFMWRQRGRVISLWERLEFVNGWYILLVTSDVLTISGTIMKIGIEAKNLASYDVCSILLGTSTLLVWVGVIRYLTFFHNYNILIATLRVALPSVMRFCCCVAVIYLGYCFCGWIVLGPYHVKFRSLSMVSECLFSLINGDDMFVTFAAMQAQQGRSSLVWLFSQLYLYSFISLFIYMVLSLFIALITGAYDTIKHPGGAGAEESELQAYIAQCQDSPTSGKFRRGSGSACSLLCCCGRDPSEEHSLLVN
#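 Tet-induced TRPML1-DL cells, 1,500 per well, cultured overnight, were loaded with a no-wash Ca2+ dye for 45–90 min. Calcium fluorescence was recorded on the FDSS for 110 s after compound addition, before the EC80 agonist (4 uM 54-4) was added.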
# ClpP mod = qHTS Assay for Activators of ClpP. Potency, µM (highest dose often 57.5 µM), without a hit: top-dose activity change, negative = active. purified B. subtilis ClpP, FRET peptide cleavage, 20 min. hit rate 1.9% among 340,000. AID 651965, 2013; active = well fitted falling curve with a large enough effect; inconclusive = small, poorly fitted or top-dose-only effect; inactive = no such curve, though single readings can be large or run the other way; further: potency means the concentration at half of the fitted maximal effect; the source files actives as falling curves though it sought activators and does not explain the sign; nearly all actives have a fitted effect of over 65% in size; many hits overshoot -100%
# Target sequence (P80244 whole entry, looked up): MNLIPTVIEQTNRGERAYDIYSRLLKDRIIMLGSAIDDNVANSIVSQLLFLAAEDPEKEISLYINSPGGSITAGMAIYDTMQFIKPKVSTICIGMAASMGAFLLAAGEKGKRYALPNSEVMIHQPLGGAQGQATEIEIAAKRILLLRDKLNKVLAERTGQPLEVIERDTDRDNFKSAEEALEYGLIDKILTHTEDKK
#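 ClpP 10 microg/mL final, pH 8 Tris/KCl buffer with BSA, glycerol, Tween-20; compound pinned in; FRET-FV substrate; RT 20 min; Ex320/Em430; ΔFRET vs ADEP 5.8 microM, DMSO, no enzyme.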
# PINK1 modulator = modulators of PINK1 expression | PINK1 immunofluorescence, high-content cytometry, 24 h | Potency, µM (highest dose often 76.6 µM), without a hit: at the highest dose activation (PINK1 increase), hits mostly activators | hit rate 0.2% among 410,000; active = well fitted activation curve with a large enough effect; inconclusive = small, poorly fitted or top-dose-only effect; inactive = flat fitted curve, though single readings scatter; cell line not stated here;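 further: potency means the concentration at half of the fitted maximal effect; % of control where 0% means no effect; nearly all actives have a fitted effect of over 65% in size; a mitochondrial uncoupler was the plate control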
#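 Decision-based qHTS: stable cells, 24 h exposure to five compound concentrations, CCCP as control. Fixed cells stained for PINK1 plus nuclear, mitochondrial and cell markers, cytometer read.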
# TRPML1 inh = human mucolipin-1 channel inhibition; Q9GZU1; TRPML1-inducible cells, Ca2+ dye fluorescence, FDSS; hits give low values; inhibition of EC80 agonist-evoked calcium signal; activity change, negative = inhibition, % (test concentration not listed); hit rate 0.02% among 390,000; AID 624415; in the data active means activity change below about -50%; inconclusive means about -30% to -50%; inactive means above about -30%;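 further: stimulus is agonist 54-4 at its EC80 concentration; on the % scale 0 is the no-effect control and ±100 the full control effect; compound concentration not given in the record; the text of the record puts the active cut at -80%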
#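 Tet-induced TRPML1-DL cells loaded with Ca8 no-wash calcium dye were read kinetically on FDSS. Compound addition was followed by EC80 agonist 54-4 (4 uM final); inhibition was read over 110 s.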
# Starred values were filed as active, the others as inactive; i = inactive; ? = inconclusive; . = not tested or not shown; & = joins results of further samples; [ ] = remark or other dose.
# Sequence of screens – ClpP mod	PINK1 modulator	TRPV1 potentiator	Sfp inh	TRPML1 inh	TRPML1 ag	Menin-MLL FL inh
- CC(=O)Nc1ccc(S(=O)(=O)N(Cc2ccccc2)c2ccccn2)cc1
    0.1%	1.0%	0	12%	-9	0.0	0.3
- Cc1ccc(NC(=O)C2CCCN2C(=O)Oc2ccccc2)c(C)c1 (configuration not stated)
    -1.4%	0.6%	-5	-13%	21	-1.4	-1.3
- COc1cc(NC(=O)COc2ccccc2)ccc1NC(=O)c1ccco1
    .	2.3%	13	-3%	16	-0.1	3.2
- CCN1CC(c2ccccc2)C(c2ccc(Cl)cc2)=N1 (configuration not stated)
    ?	?	-8	17%	7	-0.5	5.2
- COc1ccccc1CNc1nc(-c2ccccc2CO)c2sccc2n1
    4.5%	0.2%	.	.	.	-0.7	.
- O=c1c(-c2cccs2)nc2cncnc2n1Cc1ccc(F)cc1
    .	16%	.	18%	.	.	11
- COc1ccc(C)cc1NC(=O)C(OC(=O)C1=NNC(=O)CC1)c1ccccc1 (configuration not stated)
    0.8%	4.1%	.	.	-5	-1.4	.
- CCOC(=O)NC(Nc1nnc(SCC)s1)(C(F)(F)F)C(F)(F)F
    -0.7%	1.2%	-8	9%	-13	0.1	0.4
- CC1CCN(C(=O)Cn2cc(SCC(=O)NCc3ccc(F)cc3)c3ccccc32)CC1
    -1.0%	0.4%	.	.	26	3.1	.
- Cc1cc(C)n(C(C)CC(=O)NCc2ccc(Cl)cc2)n1 (configuration not stated)
    -0.3%	-0.3%	.	.	-6	-0.1	.
- NC(COCc1ccccc1)c1csc(NC(=O)Nc2cccc(C(F)(F)F)c2)n1 (configuration not stated)
    1.2%	-1.2%	.	.	.	-0.4	.
- COc1cc(C2C(=O)N(C3CCCC3)CC(=O)N2Cc2ccco2)ccc1OC(C)C (configuration not stated)
    -2.7%	-1.7%[38.3 µM]	7	-5%	-3	-0.2	8.2
- O=C1CC(=O)CC(c2ccccc2)C1
    1.1%	2.7%	3	3%	-18	0.1	9.0
- COc1ccc(NC2CCN(C3CC(=O)N(c4ccc(F)c(Cl)c4)C3=O)CC2)cc1 (configuration not stated)
    2.8µM*	0.0%	6	-20%	0	1.1	0.2
- Cn1c(=O)n(C)c2cc(NS(=O)(=O)c3ccc(C(C)(C)C)cc3)ccc21
    .	0.3%	1	-10%	37	-0.4	-7.2
- CCC1(c2ccccc2)NC(=O)N(CC(=O)N(C)Cc2ccccc2)C1=O (configuration not stated)
    .	-2.7%	18	4%	-2	1.3	0.3
- Cc1ccc(-n2cc(CN3CCC(CO)(Cc4ccccc4)CC3)cn2)cc1
    .	.	-10	6%	.	.	0.6
- Cc1ccc2c(c1)C1C3CCC(C3)C1S(=O)N2 (configuration not stated)
    .	-0.1%	10	11%	-17	-0.5	-1.3
- CCN(CC)c1ccc2cc(-c3nnc(-c4cccc(Cl)c4)o3)c(=O)oc2c1
    28µM*	18%	.	.	-20	62*	.
- CCCCn1c(C)cc2c(c1=O)[C@H]1O[C@](CCCC)(Cc3cc(OC)c(OC)cc31)O2
    .	.	i	16%	.	.	-1.0[11.7 µM]
- COC(=O)c1ccc(CNC(=O)c2ccc(OCC(=O)N3CCOCC3)c(OC)c2)cc1
    .	-0.8%	-9	.	-10	-0.5	.
- CC(=O)c1cccc(OC(=O)c2ccccc2)c1
    14µM*	3.3%	.	.	0	1.3	.
- N#Cc1c(-c2ccccc2)cc(-c2ccc3c(c2)OCO3)[nH]c1=O
    18µM*	12%	0	.	42	3.8	.
- CCCCN(C(=O)c1ccc(N(C)S(=O)(=O)c2ccc(C)cc2)cc1)c1c(N)n(CC(C)C)c(=O)[nH]c1=O
    -6.5%	0.1%	.	.	-16	-0.5	.
- Cc1ccc(CCNC(=O)c2ccc(CNS(=O)(=O)c3ccc(F)cc3)cc2)cc1
    6.1%	1.7%	.	.	-12	1.0	.
- CCC1(CC)C(=O)C2=C3C1[C@H](C(=O)OC)C=C(C(=O)OC)C[C@H]3n1c(=O)n(C)c(=O)n1[C@H]2C (some centres not stated)
    -0.1%	2.4%	.	-1%	-1&31	-0.7&0.6	1.2
- CCCCOc1ccc(N2C(=O)CC(NCc3ccncc3)C2=O)cc1 (configuration not stated)
    .	-1.8%	16	-17%	5	-0.3	-1.7
- COCC(C)NC(=O)c1cc(-c2cccc(OC)c2)on1 (configuration not stated)
    3.3%	1.6%	2	-2%	18	0.0	1.6
- CCOC(=O)C1Oc2ccccc2C(c2ccc(C)cc2)=C1C(=O)OC (configuration not stated)
    -0.1%	1.5%	.	-1%	16	-0.6	5.4[94.6 µM]
- O=C(CSc1nc(C2CCCCC2)nc2ccccc12)NCc1ccco1
    -2.2%	4.7%	12	-24%	15	1.8	13
- O=C(CCCc1nc2ccccc2s1)N1CCN(S(=O)(=O)c2cccs2)CC1
    -4.2%	-1.4%	12	-23%	15	1.0	-0.5
- CCOc1ccc(CCNC(=O)c2cc3cc4ccc(OC)cc4nc3s2)cc1OCC
    -29%	5.6%	.	.	0	-1.0	.
- COc1ccc(-c2c(C3C4C=CCCC4(C)C(=O)N3Cc3ccccc3)ccc3ccccc23)cc1OC (configuration not stated)
    .	.	.	-3%	13	2.6	1.7
- CCOC(=O)c1ccc(NC(=O)CSc2n[nH]c(-c3ccncc3)n2)cc1
    -2.1%	1.2%	23	11%	-2	-0.7	-0.5
- CCN(CC)S(=O)(=O)c1ccc(-c2nnc(SCC(=O)Nc3cc(OC)cc(OC)c3)o2)cc1
    3.6%	6.3%	3	5%	7	-0.2	1.3
- O=C(CCNS(=O)(=O)c1cccc2nonc12)Nc1ccc(Cl)cc1
    .	0.4%	-11	8%	9	-0.3	1.8
- CCOC(=O)c1c(-c2ccc(OC)cc2)csc1/N=C/C1=C(O)CCCC1=O
    0.8%	?	0	-14%	15	9.8	.
- COc1ccc(C2=NCCn3cccc32)c(OC)c1
    -1.1%	0.1%	0	30%	-8	0.0	0.0
- CSc1ccccc1C(=O)C1CCCN(C(=O)CCc2cccnc2)C1 (configuration not stated)
    .	-1.8%	11	17%	6	2.0	-3.6
- COc1ccc(NC(=O)C2C(=O)NC3(C)CC2c2ccccc2O3)cc1 (configuration not stated)
    -3.4%	0.9%	15	6%	-5	-0.7	6.4
- O=C(c1ccc(Cl)c(Cl)c1)N1CCC(=O)N(C(COCc2cccc(C(F)(F)F)c2)Cc2ccccc2)CC1 (configuration not stated)
    -3.1%	0.4%	-5	3%	11	-0.2	2.3
- CC(C)C(=O)NC(=S)Nc1ccccc1C(=O)Nc1ccccc1
    6.4%	.	2	12%	-7	0.0	-1.2
- COC(=O)c1ccccc1NC(=O)CSc1nncn1C
    .	1.0%	-8	4%	14	-0.2	-2.0
- Cc1ccc(NS(=O)(=O)c2ccc(C3CCCCC3)cc2)cc1
    -1.1%	-5.7%	6	10%	-3	2.7	3.6
- CCOc1ccc(OCC)c(NC(=O)c2ccc(-c3ccccc3)s2)c1
    2.8%	1.0%	.	.	0	1.0	.
- O=C(NCc1ccc(F)cc1)C1CC(=O)N(C2CCCCC2)C1 (configuration not stated)
    1.6%	0.3%	-5	11%	-1	-0.8	-1.2
- COc1ccc(CCNC(=O)CCCCCn2c(SCC(N)=O)nc3cc4c(cc3c2=O)OCO4)cc1OC
    2.8%	-0.2%&-1.0%	0	15%	-5&16	-0.5&1.5	-0.4
- O=C1NC2(CCCCCCC2)C(=O)N1Cc1ccc(F)cc1
    .	0.0%	27	8%	-8	0.7	3.0
- CCCS(=O)(=O)n1nc(-c2ccc(OC)cc2OC)cc1N
    -2.5%	0.5%	-1	29%	13	0.1	3.7
- CCN(CC)S(=O)(=O)c1cc(C(=O)Oc2ccccc2OC)ccc1OC
    -0.6%	-17%[38.3 µM]	8	14%	14	-0.1	0.1
- CCc1nnc(NC(=O)c2ccc(Cl)nc2)s1
    0.2%	1.5%	12	6%	-1	0.0	3.0
- CCOc1cc2[nH]c(=S)n(CCC(=O)NCc3ccco3)c(=O)c2cc1OCC
    .	11%	?	-12%	-7	-1.2	1.4
- NC(=O)c1ccccc1NC(=O)COc1ccc2c(c1)OCO2
    .	5.9%	-13	-1%	-7	0.1	2.8
- O=C(COC(=O)c1ccc(O)cc1O)Nc1cc(-c2ccccc2)nn1-c1ccccc1
    .	?	-4	.	27	3.4	.
- C/C(N)=C(/C#N)C(=O)CSc1nnc(Nc2c(C)cccc2C)s1
    1.0%	3.9%&2.2%	-1	5%	0&11	-0.6&0.8	-2.8
- Cc1cc(Br)c(NC(=O)c2c(-c3c(Cl)cccc3Cl)noc2C)c(Br)c1
    1.0%	-0.3%	-3	8%	22	4.3	4.2
- Cc1cc(N/N=C/c2ccccc2O)nc(-c2ccccc2O)n1
    -0.5%	9.2%	-14	4%	19	-1.3	13
- O=C(CCNC(=O)c1ccccc1)Nc1ccc(Cl)c(S(=O)(=O)N2CCCCC2)c1
    -0.8%	2.0%	.	.	6	-0.1	.
- CC(C)C(=O)NC(=S)Nc1ccccc1N1CCN(C(=O)c2ccccc2)CC1
    0.9%	6.4%	0	14%	24	-0.1	-4.7

# Fetched by structure from the list above:
# Sequence of screens – ClpP mod	PINK1 modulator	TRPV1 potentiator	Sfp inh	TRPML1 inh	TRPML1 ag	Menin-MLL FL inh
- CCN(CC)S(=O)(=O)c1cc(C(=O)Oc2ccccc2OC)ccc1OC
    -0.6%	-17%[38.3 µM]	8	14%	14	-0.1	0.1
- C/C(N)=C(/C#N)C(=O)CSc1nnc(Nc2c(C)cccc2C)s1
    1.0%	3.9%&2.2%	-1	5%	0&11	-0.6&0.8	-2.8
- CCOc1cc2[nH]c(=S)n(CCC(=O)NCc3ccco3)c(=O)c2cc1OCC
    .	11%	?	-12%	-7	-1.2	1.4
- O=C(CCNS(=O)(=O)c1cccc2nonc12)Nc1ccc(Cl)cc1
    .	0.4%	-11	8%	9	-0.3	1.8
- Cc1ccc(NS(=O)(=O)c2ccc(C3CCCCC3)cc2)cc1
    -1.1%	-5.7%	6	10%	-3	2.7	3.6

# Assay outcomes as filed in PubChem.
